ALR H2O2 inh = blocks human ALR sulfhydryl oxidase activity. P55789. purified ALR, DTT oxidation, H2O2 HRP-luminol luminescence. inhibition, % (concentration not given with the values). 290,000 compounds, 3.8% hits;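 active means mean and each replicate at 75% or more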;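 further: stock transfer was 7.5 nL into about 7.5 µL; 0% = neutral wells and 100% = wells with inactivated enzyme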
Target sequence (P55789 whole entry, looked up): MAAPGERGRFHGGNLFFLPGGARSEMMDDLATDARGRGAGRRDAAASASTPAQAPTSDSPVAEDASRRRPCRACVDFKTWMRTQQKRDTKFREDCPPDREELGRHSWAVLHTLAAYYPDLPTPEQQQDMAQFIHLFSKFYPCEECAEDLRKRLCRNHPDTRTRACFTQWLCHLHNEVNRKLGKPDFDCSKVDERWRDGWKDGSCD
HNF4A DNA FP = change in binding of human HNF4 alpha to DNA; P41235; HNF4a-FITC DNA binding, fluorescence polarization, 1 h; activity change, % at 10 µM; 360,000 compounds, 0.3% hits; AID 1224865; in the data active means activity change above about 30%, passing the limit was not always enough;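 further: controls were the assay level and a saturating level of protein; the project sought stronger binding though the title names inhibitors; some compounds called inactive have numbers as strong as hits; positive values seem to mean higher polarization but the record does not say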
Target sequence (P41235 whole entry, looked up): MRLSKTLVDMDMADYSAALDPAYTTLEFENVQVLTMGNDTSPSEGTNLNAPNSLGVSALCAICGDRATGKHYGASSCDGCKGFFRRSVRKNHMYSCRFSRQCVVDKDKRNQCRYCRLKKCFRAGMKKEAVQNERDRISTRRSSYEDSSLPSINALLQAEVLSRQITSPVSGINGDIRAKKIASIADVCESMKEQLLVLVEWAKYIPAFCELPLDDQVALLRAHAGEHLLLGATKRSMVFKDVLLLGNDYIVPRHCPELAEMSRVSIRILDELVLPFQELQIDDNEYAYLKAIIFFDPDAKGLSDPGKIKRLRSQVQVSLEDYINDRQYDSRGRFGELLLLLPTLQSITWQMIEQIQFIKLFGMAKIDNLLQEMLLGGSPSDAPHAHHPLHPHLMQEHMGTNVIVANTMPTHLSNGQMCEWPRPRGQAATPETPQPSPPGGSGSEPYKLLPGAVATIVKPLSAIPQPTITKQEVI
UCH37 inh = inhibitors of human deubiquitinating enzyme UCH37 | AID 588478 | inhibition, % (test concentration not listed) | purified proteasome/UCH37, Ub-AMC cleavage fluorescence | Q9Y5K5 | 330,000 compounds, 0.33% hits;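 active means mean of two replicates above 20%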;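 further: 0% = compound-free wells with enzyme and 100% = wells lacking proteasome; stock transfer was 100 nL into about 20 µL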
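System: Proteasome-associated human UCH37 deubiquitinase; Input: 0.15 nM proteasome in added enzyme buffer; Also added: Ub-AMC substrate from 1 µM stock; Incubation: 30 min compound-proteasome preincubation then 25 min substrate reaction, room temperature; Detection: fluorescence, ex 355 nm, em 460 nm; Read-out: % inhibition of Ub-AMC cleavage fluorescence; Benchmarks: no-proteasome and no-compound wells.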
FGF22 binding = binders of recombinant human FGF22 by thermal shift. SYPRO orange fluorescence; percent of sucrose octasulfate shift, DMSO zero. 340,000 compounds, 1.5% hits. calls only at 9.99 µM. Q9HCT0;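 active means melting point raised past a set limit in the mean and every replicate; three in four hits are not shown here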
Target sequence (Q9HCT0 whole entry, looked up): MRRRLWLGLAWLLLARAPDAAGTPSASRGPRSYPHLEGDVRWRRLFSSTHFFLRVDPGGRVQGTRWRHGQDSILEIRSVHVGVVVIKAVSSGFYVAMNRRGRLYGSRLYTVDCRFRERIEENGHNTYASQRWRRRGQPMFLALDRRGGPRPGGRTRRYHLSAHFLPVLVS
Ecoli growth = inhibitors of Escherichia coli growth. OD600, 23 h; hits give low values. OD600 absorbance (no concentration beside the values). 330,000 compounds, 0.21% hits. AID 1053175;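 active means OD600 absorbance below the run mean of sample wells minus 3.6 SD, in any replicate, cut at about 0.56 in these data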;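 further: stock transfer was 300 nL into about 60 µL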
rRNA inh HTS = inhibitors of bacterial rRNA selective over humanized ribosomes; E. coli WT GFP vs humanized-ribosome RFP mutants, fluorescence, 24 h; hits give low values; DMSO median 0, no signal -100; GFP signal change (wild-type ribosome), % (test concentration not listed); 350,000 compounds, 1.6% hits;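 active means significant combined selectivity score with lowered wild-type GFP, culture density cut under 30%, mutant RFP and density less affected; inactive means any of these conditions unmet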; further: one replicate is shown; some compounds called inactive have numbers as strong as hits
Beta2AR agonist = human beta-2 adrenergic receptor agonism by FAP. Am2.2-beta2AR cells, FAP receptor internalization, flow cytometry; reference of the scale not given here. response, % (test concentration not listed). 340,000 compounds, 0.43% hits;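 active means response above a set limit, near 3 SD of response in nonfluorescent compounds, cut at about 42% in these data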;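 further: stock transfer was 100 nL into about 11 µL; a reference agonist was the positive control; negative values mostly stem from fluorescent compounds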
rRNA inh HTS OD600 = further read-out of rRNA inh HTS, marked with its call; OD600 change, %; measured here: OD600 growth;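 optical density of the mix in the first replicate; 0 = DMSO median and -100 = no signal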
rRNA inh HTS RFP = second read-out of rRNA inh HTS, no call of its own (marks repeat the call); RFP signal change, %; measured here: RFP humanized mutant strains;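 first replicate; 0 = DMSO median and -100 = no signal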
Numbers without * were called inactive; i = inactive; x = no result given. The list is partial; the hit share may differ from the screen's.

SMILES	ALR H2O2 inh	HNF4A DNA FP	UCH37 inh	FGF22 binding	Ecoli growth	rRNA inh HTS	rRNA inh HTS OD600	rRNA inh HTS RFP	Beta2AR agonist
COc1ccc(-c2cc(N)n(S(=O)(=O)c3ccc(F)cc3)n2)cc1OC	-4	0.8	3.3	i	0.72	8	8	-1.0	-1
CCN(CC(=O)NCc1cccs1)S(=O)(=O)c1ccccc1Cl	-4	-1.6	3.0	i	0.71	6	-6	-0.1	-7
CC(C(=O)N1CCCC1)N1CCN(S(=O)(=O)c2ccccc2)CC1 (stereo unspecified)	-7	-0.2	2.8	i	0.66	9	15	-0.8	-4
Cn1c(=O)n(C)c2cc(NS(C)(=O)=O)ccc21	-38	-0.8	-0.9	x	0.69	x	x	x	2
O=C(CSc1nc2ccccc2o1)N/N=C/c1ccc(C(=O)O)cc1	x	3.9	x	i	x	9	5	-3.2	2
O=C(c1ccoc1)N1CCC2(CC1)Oc1ccc(Cl)cc1C(=O)C21CC(c2ccccc2)=NO1 (stereo unspecified)	1	2.2	1.1	i	0.7	12	9	4.1	-6
O=C(COc1ccccc1)N1CCN(C(=O)c2ccco2)CC1	-2	-2.9	0.2	i	0.7	2	-3	6.1	-1
COc1ccc(C(=O)C(=O)N2CCN(c3ccc(C)cc3)CC2)cc1OC	x	1.8	x	i	x	0	-3	4.4	x
CC(C)(C)c1ccc(/C=C/C(=O)N2CCN(c3ncccn3)CC2)cc1	0	6.2	0.9	i	0.67	x	x	x	1
CCN(CC)C(=O)C[n+]1ccc(C(N)=O)cc1	1	-0.4	0.4	i	0.7	11	2	4.7	10
O=C(COC(=O)c1ccc[n+]([O-])c1)Nc1ccc([N+](=O)[O-])cc1C(F)(F)F	2	0.1	6.3	i	0.65	0	6	-5.7	13
O=c1ccn(-c2cccc(C(F)(F)F)c2)nc1-c1ccn(-c2cccc(Cl)c2)n1	-31	3.4	-5.7	x	0.73	x	x	x	-23
C/C=C(\C)C(=O)Nc1cccc(C2=NOC3(C2)C[C@H](C(N)=O)N(C(=O)CC#N)C3)c1 (stereo partly specified)	-12	0.4	0.1	i	x	x	x	x	-8
CCOC(=O)NC(c1ccccc1)C1CCCCC1=O (stereo unspecified)	-5	-4.6	-0.3	x	0.73	x	x	x	1
Cc1cccc(NC(=O)N2CCCC2C(=O)NCc2cccs2)c1 (stereo unspecified)	-13	1.8	-1.2	x	0.73	x	x	x	-4
COc1ccc(N=C2S/C(=C\c3ccc(OCC(=O)O)cc3)C(=O)N2CCc2c[nH]c3ccccc23)cc1	x	-74	10	i	0.71	-3	6	-4.7	16
O=C(NC(=S)NCc1cccnc1)c1ccccc1F	x	-3.3	5.6	i	0.66	-2	-11	1.0	-4
COc1cc2c(cc1OC)C(COc1ccccc1OC)N(C(=O)C(C)C)CC2 (stereo unspecified)	x	0.2	5.7	i	0.71	-12	-4	-0.9	-4
Cc1ccccc1C(=O)N/N=C1/SCC(=O)N1Cc1ccc2c(c1)OCO2	49	-2.8	x	i	x	-10	1	5.2	0
COc1ccccc1NC(=O)NCc1ccccc1F	2	0.8	2.8	i	0.66	12	1	3.8	-1

Molecules above that have a thiophene ring, fused or not:
SMILES	ALR H2O2 inh	HNF4A DNA FP	UCH37 inh	FGF22 binding	Ecoli growth	rRNA inh HTS	rRNA inh HTS OD600	rRNA inh HTS RFP	Beta2AR agonist
CCN(CC(=O)NCc1cccs1)S(=O)(=O)c1ccccc1Cl	-4	-1.6	3.0	i	0.71	6	-6	-0.1	-7
Cc1cccc(NC(=O)N2CCCC2C(=O)NCc2cccs2)c1 (stereo unspecified)	-13	1.8	-1.2	x	0.73	x	x	x	-4

Additional compounds
SMILES	ALR H2O2 inh	HNF4A DNA FP	UCH37 inh	FGF22 binding	Ecoli growth	rRNA inh HTS	rRNA inh HTS OD600	rRNA inh HTS RFP	Beta2AR agonist
COc1ccc(C(=O)Nc2ccc(Cc3ccncc3)cc2)cc1Br	2	4.0	3.8	i	0.61	-36	-38	-1.5	-4
O=C(CSc1nc2ccccc2c(=O)n1CCCN1CCOCC1)Nc1ccccc1OC(F)F	-4	-1.5	5.2	i	0.72	-4	-4	1.9	-48
CCSc1nc2sc3c(c2c2nnc(SCC(=O)NCc4ccco4)n12)CCCC3	75	x	-4.6	x	0.69	x	x	x	x
CCOCC(=O)N1CCN(c2ccc([N+](=O)[O-])cc2)CC1	-13	-0.1	11	x	0.66	x	x	x	2
Cn1c(SCC(=O)Nc2cccc(F)c2)nnc1-c1cccnc1	x	-2.1	0.8	i	0.72	12	10	0.9	-3
CN(C)CCCn1c(SCC(=O)Nc2sc3c(c2C#N)CCCC3)nnc1-c1ccncc1	-5	1.2	7.2	i	0.68	-2	2	-2.7	-8
Cc1ccc(-n2ncc3c2CC(C)(C)CC3NC(=O)CCc2cnn(C)c2)cc1 (stereo unspecified)	0	1.1	4.8	i	0.72	-6	-10	-4.0	0
O=C(CSc1nnc(-c2ccccc2Br)o1)Nc1cccc2ccccc12	-5	-1.1	5.0	x	0.73	x	x	x	-1
Cc1ccccc1S(=O)(=O)NC(=O)C1(C)CCN1C(=O)c1cccc(F)c1 (stereo unspecified)	x	-0.7	x	i	x	8	22	0.7	x
Cc1ccc(C2=CSC3=NS(=O)(=O)CCN23)cc1	-10	-1.8	3.7	i	0.67	7	18	2.6	-2
CCC(CC)C(=O)N(CCc1ccc(OC)cc1)Cc1nc2ccccc2c(=O)[nH]1	-5	1.4	3.8	i	0.66	-51*	-19*	-10*	-11
Cc1ccccc1-c1cc(-c2ccccc2O)on1	2	-2.6	3.2	x	0.72	x	x	x	6
CCN(CC)Cc1cc(O)c(CN(CC)CC)cc1O	x	-1.9	4.7	x	0.71	16	20	6.2	16
CC(=O)c1ccc(C(=O)Nc2sc3c(c2C(N)=O)CCN(Cc2ccccc2)C3)cc1	-12	71	0.0	i	0.76	1	-5	-2.2	-1
COc1cccc(-c2cc(C(F)(F)F)nc(-n3cc(C)cn3)n2)c1	-8	-0.3	-17	i	0.67	-13	-9	19	-17
CC(=O)Nc1ccc(SCC(=O)O)cc1	53	-0.3	-1.2	i	0.62	18	6	6.3	-2
CC(=O)NC12CC3CC(C1)CC(C(=O)N1CCN(C(=O)c4ccco4)CC1)(C3)C2	-3	1.4	2.6	i	0.65	8	16	-0.8	-5
O=C(NCc1ccco1)C12CN(Cc3ccccc3)CC1C(c1ccc([N+](=O)[O-])cc1)=NO2 (stereo unspecified)	-1	2.4	0.0	i	0.68	6	17	4.0	2
CCCCOc1cccc(C(=O)Nc2ccc(NC(=O)c3cccs3)cc2)c1	x	-0.2	-27	i	0.76	-1	6	-0.8	79*
CN1CCN(C(=O)c2ccccc2NC(=O)Cc2ccccc2)CC1	x	0.6	2.8	x	0.68	x	x	x	-5
OCCCCNCc1cc(Br)ccc1OCc1ccccc1	-9	1.2	3.5	x	0.68	40	14	9.2	2
COc1cc(C(=O)Nc2nnc(CC(=O)N3CCOCC3)s2)cc(OC)c1OC	0	0.7	3.5	x	0.68	x	x	x	1
COc1cc(/C=C(\CCC(=O)O)c2nc3ccccc3s2)ccc1OCC(=O)Nc1c(Cl)cccc1Cl	x	-27	-226	i	0.66	1	10	-3.3	-4
Cn1c(=O)cc(SCC(=O)NCCC2=CCCCC2)c2ccccc21	-2	5.9	x	i	x	-23	-32	-1.0	-15
CCS(=O)(=O)n1nc(-c2ccc(OC)cc2)nc1SC	2	-1.2	4.2	x	0.74	x	x	x	-6
CC(C)NOC(=O)c1ccc(Cl)cc1	-17	-1.9	4.9	x	0.65	x	x	x	-5
Cc1cc(C)nc(Nc2nc(C(N)Cc3ccc(C(F)(F)F)cc3)cs2)n1 (stereo unspecified)	x	8.6	x	i	x	-59	-82	-20	x
C#CCONC(=O)c1cc(OCC(F)(F)F)ccc1OCC(F)(F)F	-9	0.8	5.2	x	0.68	x	x	x	-7
COC(=O)c1ccc(CNC(=O)c2ccccc2C(=O)NCC2(CBr)OCCO2)cc1	x	2.0	x	i	x	8	10	6.5	x
Cc1ccccc1-c1nsc(SCC(=O)c2ccc(Cl)cc2)n1	-2	1.7	4.7	i	0.71	8	6	6.5	-25
Cc1ccc(NC(=O)CN(C)CC(=O)Nc2ccccc2C(=O)Nc2ccccc2)cc1	1	-2.6	5.1	i	0.72	7	0	-3.1	-1
CC(C)C(=O)NC(c1ccc(N(C)C)cc1)c1c(O)ccc2ccccc12 (stereo unspecified)	14	-1.1	3.3	i	0.69	13	10	1.2	6
CC(C)CN(C(=O)COC(=O)c1cc2c(s1)CCC2)C1CCS(=O)(=O)C1 (stereo unspecified)	-7	-18	-19	x	0.73	x	x	x	-2
CCCC(C)C(=O)N(Cc1ccccc1)c1ccccn1 (stereo unspecified)	2	2.6	4.1	x	0.68	x	x	x	2
CC(=O)N(c1ccccc1)c1nc2ccccc2s1	x	-0.8	-2.4	x	0.72	-1	-5	2.1	-5
COc1ccc(C2C3=C(CC(c4ccco4)CC3=O)Nc3ccccc3N2C(C)=O)cc1 (stereo unspecified)	x	0.0	-11	x	0.79	x	x	x	-1
CCOCCCNC(=O)COC(=O)/C=C/c1ccc(S(=O)(=O)N2CCc3ccccc32)cc1	-5	-3.2	3.3	i	0.66	-7	-9	1.1	2
CCN(CC(=O)NCc1ccc(F)cc1)C(=O)c1cccnc1SC	-13	-0.7	0.9	i	0.64	4	1	0.8	5
Cc1c(/C=N\NC(=O)c2ccc(F)cc2)cnn1C	99*	-1.5	x	x	x	x	x	x	4
OCCC1CN(Cc2cccc(-c3ccco3)c2)CCN1Cc1ccsc1 (stereo unspecified)	x	1.5	-1.2	x	0.67	-3	-9	-2.6	3

Record cards, from the list above:
COc1ccccc1NC(=O)NCc1ccccc1F reads ALR H2O2 inh: 2; HNF4A DNA FP: 0.8; UCH37 inh: 2.8; FGF22 binding: i; Ecoli growth: 0.66; rRNA inh HTS: 12; rRNA inh HTS OD600: 1; rRNA inh HTS RFP: 3.8; Beta2AR agonist: -1
CC(C)(C)c1ccc(/C=C/C(=O)N2CCN(c3ncccn3)CC2)cc1 reads ALR H2O2 inh: 0; HNF4A DNA FP: 6.2; UCH37 inh: 0.9; FGF22 binding: i; Ecoli growth: 0.67; rRNA inh HTS: x; rRNA inh HTS OD600: x; rRNA inh HTS RFP: x; Beta2AR agonist: 1

(more compounds)
SMILES	ALR H2O2 inh	HNF4A DNA FP	UCH37 inh	FGF22 binding	Ecoli growth	rRNA inh HTS	rRNA inh HTS OD600	rRNA inh HTS RFP	Beta2AR agonist
N#Cc1c(C(F)(F)F)cc(=O)[nH]c1SCC(=O)O	-1	1.2	4.2	i	0.65	4	-2	-3.4	0
Cc1ccc(OCCOC(=O)Nc2ccccc2)cc1	1	-0.4	1.4	i	0.64	4	1	-0.8	0
CC(C)(C)N1C(=O)c2ccc(C(=O)O)cc2C1=O	-4	1.1	-1.7	x	0.74	x	x	x	-2
O=C(N/N=C/c1ccccc1Br)C1CC1	-12	3.6	x	x	x	20	16	-1.6	14
O=C(COc1ccc(-c2ccccc2)cc1)NNC(=O)Nc1ccc(F)cc1F	-3	-2.4	4.6	i	0.69	1	8	1.1	0
Cc1cc(C)c2nc(N3CCC(C(=O)NCCN4CCOCC4)CC3)sc2c1	55	2.1	4.5	i	0.69	5	-2	1.6	1
O=C(NCCCn1ccnc1)Nc1ccc(Cl)cc1	-6	-0.8	1.1	x	0.6	x	x	x	-4
CC1(c2ccccc2)NC(=O)N(NC(=O)COC(=O)c2cc(Br)ccc2O)C1=O (stereo unspecified)	1	-4.3	2.8	i	0.66	2	-11	0.0	1
